Bioassay records deposited in PubChem BioAssay by several laboratories.
B2AR ag = activates human beta-2 adrenergic receptor causing internalization; response, % (no concentration beside the values); hit rate 0.43% among 340,000; P07550; Am2.2-beta2AR cells, FAP receptor internalization, flow cytometry; reference of the scale not given here;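 active = response above a set limit, near 3 SD of response in nonfluorescent compounds, cut at about 42% in these data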;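 also: stock transfer was 100 nL into about 11 µL; a reference agonist was the positive control; negative values mostly stem from fluorescent compounds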
Target sequence (P07550 whole entry, looked up): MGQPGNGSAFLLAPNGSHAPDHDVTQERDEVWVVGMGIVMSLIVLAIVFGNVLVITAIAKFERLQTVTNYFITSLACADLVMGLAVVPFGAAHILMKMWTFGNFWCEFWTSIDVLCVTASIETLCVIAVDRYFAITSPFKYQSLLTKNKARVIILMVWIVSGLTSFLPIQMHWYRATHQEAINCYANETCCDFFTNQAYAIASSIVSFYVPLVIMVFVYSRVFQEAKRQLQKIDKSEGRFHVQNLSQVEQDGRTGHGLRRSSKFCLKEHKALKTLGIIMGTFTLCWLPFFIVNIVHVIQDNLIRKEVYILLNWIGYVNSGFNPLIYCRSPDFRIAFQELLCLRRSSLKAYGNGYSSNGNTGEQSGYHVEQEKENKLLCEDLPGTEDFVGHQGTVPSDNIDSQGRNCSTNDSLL
UCH37 inh = blocks the human deubiquitinase UCH37; purified proteasome/UCH37, Ub-AMC cleavage fluorescence; inhibition, % (no concentration beside the values); hit rate 0.33% among 330,000;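 active = mean of two replicates above 20%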;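 also: 0% = compound-free wells with enzyme and 100% = wells lacking proteasome; stock transfer was 100 nL into about 20 µL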
Target sequence (Q9Y5K5 whole entry, looked up): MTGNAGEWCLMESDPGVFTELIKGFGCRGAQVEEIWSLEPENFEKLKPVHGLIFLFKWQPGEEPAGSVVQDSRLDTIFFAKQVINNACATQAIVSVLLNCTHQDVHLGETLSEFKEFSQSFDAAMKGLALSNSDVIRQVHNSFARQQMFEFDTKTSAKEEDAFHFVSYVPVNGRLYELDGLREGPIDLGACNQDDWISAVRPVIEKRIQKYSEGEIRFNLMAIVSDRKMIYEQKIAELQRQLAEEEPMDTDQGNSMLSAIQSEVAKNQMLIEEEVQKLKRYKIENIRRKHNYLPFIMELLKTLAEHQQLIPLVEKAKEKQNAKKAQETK
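System: Proteasome-associated human UCH37 deubiquitinase; Input: 0.15 nM proteasome in added enzyme buffer; Also added: Ub-AMC substrate from 1 µM stock; Incubation: 30 min compound-proteasome preincubation then 25 min substrate reaction, room temperature; Detection: fluorescence, ex 355 nm, em 460 nm; Read-out: % inhibition of Ub-AMC cleavage fluorescence; Benchmarks: no-proteasome and no-compound wells.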
RanGTP-Impb inh = disruptors of Ran-importin-beta complex formation – biochemical, FRET, CFP-Ran, YFP-importin-beta, homogeneous, primary screen; inhibition, % (test concentration not listed); cell-free CFP-Ran/YFP-importin-beta FRET ratio; hit rate 1.1% among 300,000;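 active = most replicates above 15%; inconclusive = exactly half above 15%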;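 also: 0% = DMSO wells and 100% = Ran loaded with GDP instead of GTP; wells of about 40 µL received 100 nL stock; the first replicate is given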
Calb FLC = C. albicans growth modulation with fluconazole; hit rate 0.57% among 300,000; growth inhibition, % (test concentration not listed); AID 1979; C. albicans CaCi-2 (fluconazole-resistant clinical isolate) + fluconazole, Alamar Blue growth, 48 h;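 active = most replicates above 75%; inconclusive = exactly half above 75%; inactive = most below 75%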;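 also: all wells also contain fluconazole at 8 µg/ml as a sub-toxic cotreatment; 0% = median of DMSO wells and 100% = median of geldanamycin control wells; wells of about 8 µL received 7.5 nL stock; the first replicate is given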
T cruzi repl = blocks replication of Trypanosoma cruzi; T. cruzi beta-gal in NIH3T3, luminescence, 90 h; inhibition, % (test concentration not listed); hit rate 1.4% among 300,000; AID 1885;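 active = mean inhibition across valid replicates above about 55%, limit read from the data; inconclusive = mean below that limit but half or more replicates reach it; inactive = mean below it, under half of replicates reach it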;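 also: signal also drops with host cell toxicity which is not excluded here; 0% = plate median of DMSO wells and 100% = zero luminescence signal; higher percent means less beta-gal luminescence so fewer parasites; stock transfer was 50 nL into about 50 µL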
A1 inh = inhibitors of the anti-apoptotic protein A1, read as caspase activation; MEF A1-2A-BIM cells, Caspase-Glo 3/7 luminescence, 3 h; percent of clofoctol response, vehicle zero; caspase activation, % (no concentration beside the values); hit rate 0.066% among 330,000; AID 2462;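 active = over half of replicate activation scores above 10%, or exactly half above 10 with the replicate mean above 10; inconclusive = replicate mean below 10 yet half the replicates above 10; inactive = over half of replicates below 10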;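 also: wells of about 30 µL received 50 nL stock; many hits fall short of the cut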
LANA-H2B inh = blocks KSHV LANA binding to histone H2A/H2B; Q9QR71; cell-free LANA-H2A/H2B peptide, fluorescence polarization; hit rate 0.6% among 320,000; inhibition, % (test concentration not listed); AID 2629; in the data active = inhibition mostly above about 10%, no sharp cut-off; inactive = mostly below about 6.7%;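 also: stock transfer was 7.5 nL into about 10 µL; 0% = median of vehicle wells and 100% = median of positive control wells; one replicate is shown; the record names a cut of 25% in any replicate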
Beta apoptosis = beta cell apoptosis inhibition; INS-1E cytokine-induced death, ATP luminescence, 48 h; percent of positive-control rescue, neutral wells zero; hit rate 0.8% among 300,000; protection from apoptosis, % (test concentration not listed);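 active = all replicates at 75% or more, or half of them and the mean; inconclusive = half reach 75% but not the mean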;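 also: 0% = cytokine-treated negative control wells and 100% = positive control rescue; higher means more ATP so stronger rescue from cytokine killing; wells of about 40 µL received 100 nL stock; the first replicate is given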
* hit, by the source's call; ? = inconclusive; . = no result given.

SMILES	B2AR ag	UCH37 inh	RanGTP-Impb inh	Calb FLC	T cruzi repl	A1 inh	LANA-H2B inh	Beta apoptosis
O=C(N/N=C/c1cccnc1)c1ccc([N+](=O)[O-])cc1	-0.9	.	2.4	-0.2	0.4	0.1	1.0	0.2
COc1cccc(NC(=O)Nc2nccc(C)n2)c1	3.7	4.8	?	13.7	3.5	-5.5	4.8	-0.2
O=CN/N=C/c1c(O)ccc2ccccc12	-3.6	.	1.2	27.4	28.6	0.7	2.1	57.7
COc1ccc(NC(=O)Cn2c(=O)cnc3ccccc32)cc1S(=O)(=O)N1CCCCC1	4.0	8.4	0.5	-0.6	1.7	-0.1	-1.7	4.9
COc1ccc(NC(=O)CSc2nc(=O)n(CCN3CCOCC3)c3c2CCC3)cc1	-0.5	3.0	-2.1	-6.8	-0.1	-0.9	4.3	.
CCn1c(O)c(C=NCCN2CCOCC2)sc1=S	4.0	3.0	2.3	?	-7.0	0.3	3.6	-1.8
CCn1c(-c2nn(-c3ccc(C)cc3)ccc2=O)n[nH]c1=S	6.4	5.7	1.2	-15.2	.	-0.3	-0.3	0.7
CC1CCCC(C)N1CCCNC(=O)c1ccc2nc(N3CCCCC3)sc2c1 (stereo unspecified)	-6.4	5.6	?	-6.7	-4.3	0.3	1.4	1.5
COc1ccc(N(C)S(=O)(=O)c2c(C)noc2C)c(OC)c1	9.6	-0.1	2.2	5.8	6.8	-0.9	-1.5	-7.6
COc1ccc([C@H]2CC(=O)C=C(/C=C/c3ccc(C(F)(F)F)cc3)C2)cc1	1.6	2.5	.	.	.	-1.0	1.3	3.4

Of the compounds above, 6 contain sulfur:
SMILES	B2AR ag	UCH37 inh	RanGTP-Impb inh	Calb FLC	T cruzi repl	A1 inh	LANA-H2B inh	Beta apoptosis
COc1ccc(NC(=O)Cn2c(=O)cnc3ccccc32)cc1S(=O)(=O)N1CCCCC1	4.0	8.4	0.5	-0.6	1.7	-0.1	-1.7	4.9
COc1ccc(NC(=O)CSc2nc(=O)n(CCN3CCOCC3)c3c2CCC3)cc1	-0.5	3.0	-2.1	-6.8	-0.1	-0.9	4.3	.
CCn1c(O)c(C=NCCN2CCOCC2)sc1=S	4.0	3.0	2.3	?	-7.0	0.3	3.6	-1.8
CCn1c(-c2nn(-c3ccc(C)cc3)ccc2=O)n[nH]c1=S	6.4	5.7	1.2	-15.2	.	-0.3	-0.3	0.7
CC1CCCC(C)N1CCCNC(=O)c1ccc2nc(N3CCCCC3)sc2c1 (stereo unspecified)	-6.4	5.6	?	-6.7	-4.3	0.3	1.4	1.5
COc1ccc(N(C)S(=O)(=O)c2c(C)noc2C)c(OC)c1	9.6	-0.1	2.2	5.8	6.8	-0.9	-1.5	-7.6

The results go on:
SMILES	B2AR ag	UCH37 inh	RanGTP-Impb inh	Calb FLC	T cruzi repl	A1 inh	LANA-H2B inh	Beta apoptosis
COC(=O)[C@H](Cc1ccccc1)NC(=O)NCCc1ccccc1F	11.3	1.6	-2.9	-7.4	-0.1	-0.7	2.8	-6.6
OCCNc1nc(N2CCN(c3ccccc3)CC2)nc2ccccc12	33.9	4.3	-3.6	-1.3	49.6	-0.4	1.3	0.3
O=C(CCC(=O)c1ccccc1)Nc1ccc(C(=O)O)cc1	-3.3	5.1	1.1	-9.2	-5.0	1.1	-2.8	-9.9
Cc1ccccc1N(CC(=O)NCc1ccco1)C(=O)CCC(=O)Nc1nccs1	-11.1	-1.9	3.1	6.5	-0.7	-0.1	-0.9	4.1
Fc1cccc(CSc2ccc(-c3ccco3)nn2)c1	-22.3	1.8	-2.3	14.6	11.6	-3.1	1.7	1.1
COc1ccc(NC(=O)COC(=O)COc2ccc(Br)cc2)cc1	5.0	5.0	-0.1	20.4	-6.1	-0.2	1.2	1.1
CCNc1ccc([N+](=O)[O-])cc1	-2.7	10.1	0.3	3.1	-6.5	1.2	-0.5	1.5
CCOC(=O)c1[nH]c(=O)[nH]c1CNc1ccccc1C#N	-6.7	-0.7	-1.1	-2.5	-5.2	0.6	1.1	2.5
COc1ccc(NC(=O)NC2CCN(C(C)C)CC2)c(OC)c1	5.8	-1.2	1.4	-11.0	-10.1	0.2	-1.8	-2.7
O=C(Nc1ccc(OC(F)F)c(Cl)c1)[C@@H]1CCCN1C(=O)c1cccs1	5.3	1.7	-3.2	-4.5	-0.2	-0.8	-1.6	-0.3
CC(NC(=O)c1ccccc1F)C(=O)O (stereo unspecified)	-1.6	0.2	-0.6	-2.0	-8.1	-0.8	-1.5	.
Cc1cc(=O)oc2c3c(cc(OCC(=O)Nc4ccc(CCO)cc4)c12)OC(C)(C)CC3	3.3	-310.9	-4.1	2.7	31.9	-0.7	-2.0	5.2
Cc1ccc(NC(=O)c2ccc(NCC3CCCO3)c([N+](=O)[O-])c2)cc1Cl (stereo unspecified)	2.5	4.4	-2.1	-1.8	2.5	8.2*	-4.1	.
O=C(COC(=O)c1ccccc1)Nc1ccc(Cl)cn1	2.2	-0.8	2.4	-35.2	-0.8	0.6	3.8	0.7
CCc1nnc(NC(=O)C2CC(=O)N(c3ccc4c(c3)OCCO4)C2)s1 (stereo unspecified)	1.3	1.9	-0.5	12.1	-5.8	-0.2	2.2	-7.7
O=C(N/N=C/c1ccc([N+](=O)[O-])o1)c1ccncc1	7.6	.	-2.5	-0.9	22.3	-1.2	1.0	-24.4
Cc1ccc(OCC(=O)N/N=C/c2cccn2C)cc1	-2.9	.	-2.3	-5.7	-8.3	-0.6	7.0	-8.3
Cc1cc(NC(=O)CSCC(=O)Nc2cc(C(F)(F)F)ccc2N2CCCC2)no1	4.2	0.0	-2.3	1.9	2.6	0.7	-4.7	.
CC(C)COC(=O)N1CCN(S(=O)(=O)c2ccc3c(c2)CCC3)CC1	-8.3	3.0	.	.	.	-0.8	-5.2	-0.7
Fc1ccccc1NC(=S)N1CCN(C/C=C/c2ccccc2)CC1	56.1*	-0.9	-1.5	-1.1	-29.3	0.0	1.6	3.2
Cc1onc(C(=O)Nc2ccc3c(c2)OCO3)c1[N+](=O)[O-]	-3.2	5.8	1.0	-1.0	7.6	-3.4	2.3	-3.8
COc1ccc(OC)c(S(=O)(=O)n2cnc3ccccc32)c1	1.0	.	-0.6	1.6	2.2	1.1	-0.3	-3.7
CC1(C)c2[nH]c3ccccc3c2C[C@@H]2C(=O)N(Cc3ccccc3Cl)C(=O)N21	1.7	2.2	2.5	4.2	14.9	1.0	5.4	3.9
O=S(=O)(c1ccccc1)n1c(C(O)c2ccccn2)cc2ccccc21 (stereo unspecified)	-1.5	4.1	-6.7	13.8	-4.2	-0.4	4.7	-9.2
Cc1ccc(S(=O)(=O)N(CC(O)CN2C(=O)NC(C)(C)C2=O)c2ccccc2)cc1 (stereo unspecified)	1.7	-1.5	0.9	-19.0	-3.0	1.0	4.2	.
O=C1CCCCN1CCC(=O)N1CCCC(Nc2ccccc2)C1 (stereo unspecified)	5.6	1.1	6.3	-7.6	-10.9	0.4	0.9	-1.5
CCC1CSC(Nc2ccc(C(=O)/C=C/c3ccc(Br)cc3)cc2)=N1 (stereo unspecified)	10.7	5.2	-0.9	?	45.2	0.5	13.6	30.6
O=C1CCC2(C(=O)O)Sc3ccccc3N12 (stereo unspecified)	5.0	0.9	-0.5	-5.4	-27.2	-0.5	-1.5	-2.5
Cn1c(=O)c(-[n+]2ccccc2)c([O-])c2ccccc21	-14.6	1.6	2.3	-21.9	-20.9	1.9	-1.6	-0.8
COCCn1c(SCC(=O)N(C(C)C)C(C)C)nnc1-c1cc2ccccc2cc1O	-5.7	0.4	0.1	20.6	-3.4	0.0	0.1	1.0
CC(CC(=O)NC(C)c1ccc2c(c1)OCCO2)c1ccccc1 (stereo unspecified)	0.8	-0.2	1.6	-7.3	6.7	0.0	1.9	-3.3
O=[N+]([O-])/C=C/c1cn(Cc2ccc(Cl)cc2)c2ccccc12	38.0	20.4*	-2.5	10.0	1.2	9.1*	4.9	0.2
Cc1ccc2cc(CN(Cc3ccco3)S(=O)(=O)c3c(C)ccc4nsnc34)c(=O)[nH]c2c1	3.8	-1.1	5.2	-5.4	20.9	-0.6	5.1	-10.9
CN(C)S(=O)(=O)c1ccc2c(c1)C(=O)c1cc(S(=O)(=O)N(C)C)ccc1CC2	-5.4	0.0	.	.	.	-1.2	-18.8	4.7
c1ccc2sc(N3CCCN(Cc4nc(-c5cnccn5)no4)CC3)nc2c1	-1.4	3.8	-3.6	-0.1	6.4	-0.9	0.4	1.0
CC(=O)Nc1ccc(OCCC[n+]2cccc(C(=O)[O-])c2)cc1	1.0	4.7	-0.4	-6.5	-7.0	-0.4	3.7	-7.0
CN(C)c1c(N)c(=O)oc2ccccc12	-2.1	7.0	-1.0	-12.2	-13.7	0.3	0.7	-1.4
COc1cccc(N(C(=O)Cn2nnc(-c3cccs3)n2)C(C(=O)NC(C)C)c2ccc(C)o2)c1 (stereo unspecified)	-6.1	-3.3	-0.2	-4.8	14.2	1.2	0.2	7.9
Cc1ccccc1-n1nnnc1SCC(=O)NC1CC1	6.4	-3.3	.	.	.	-0.1	6.2	-5.9
CCO[C@@H]1OC(C(=O)NCc2nc3ccccc3[nH]2)=C[C@H](c2csc3ccccc23)[C@H]1CCCO	12.9	0.0	5.3	-2.1	18.9	-0.8	2.8	14.1
CCOc1ccccc1N1CCN(Cc2ccco2)CC1	-4.3	2.0	1.1	-11.8	-13.1	0.8	5.1	-1.4
CCOC(=O)c1c(CSc2cccs2)n(C)c2cc(Br)c(O)c(CN(C)C)c12	-6.4	5.5	2.7	-9.6	32.7	0.0	2.2	2.7
Cc1ccc(N2C(=O)c3ccccc3C2=O)cc1	25.9	-0.7	0.7	-0.3	-15.8	-3.7	1.0	4.0
COc1ccc(OC)c(CCNC(=O)CC2(CC3=NS(=O)(=O)c4ccccc4N3)CCCC2)c1	-10.8	8.9	-1.0	-6.5	17.8	-0.2	-2.0	-8.9
CCOC(=O)C1(CC2CC2)CCN(Cc2cn(C)c3ccccc23)CC1	-1.6	2.3	-1.5	-37.0	8.3	1.1	-3.3	8.9
CCOc1ccccc1NC(=O)CSc1nnc2ccc(-c3cccnc3)nn12	-13.3	5.8	5.1	-8.9	-6.4	-0.7	7.2	2.4
COc1ccc(OC)c(NC(=O)c2ccc3c(c2)CCN3S(C)(=O)=O)c1	1.0	2.1	-2.5	0.1	?	-0.4	1.3	6.1
CCOC(=O)N1CCN(C(=O)c2ccc(Cl)c(S(=O)(=O)N3CCCC3)c2)CC1	-8.0	6.0	-1.4	-2.4	-17.6	-0.8	-2.8	-1.3
CCOc1ccc(OCC)c(NC(=O)CN(C)S(=O)(=O)c2cnc[nH]2)c1	0.6	-3.2	-0.4	17.2	-7.5	0.9	1.2	2.4
O=C(Nc1ccc(CN2CCOCC2)cc1)c1ccc(N2CCCC2)c([N+](=O)[O-])c1	-25.0	7.9	-1.3	19.6	-1.2	-0.7	0.4	9.1
